Compound activity as filed in PubChem.
Anthrax LT inh – anthrax lethal toxin internalization inhibition | Potency, µM (titrated, usually from 40 µM), for inactives: at the top dose activity change, negative = inhibition, most hits filed as inhibitors | Cells, anthrax lethal toxin internalization, FRET ratio (460/530) | hit rate 0.67% among 70,000; active = well fitted falling ratio curve with the 530 nm signal flat; inconclusive = other ratio curves, or a change in one channel alone; inactive = flat curves in the ratio and both channels; the % refers to the ratio; further: on the % scale 0 is the no-effect control and ±100 the full control effect; nearly all actives have a fitted effect of over 50% in size; tested in ME-180 cells; beta-lactamase reporter
SmPrx2 inh – blocks S. mansoni peroxiredoxin 2 enzymatic activity; Potency, µM; hit rate 0.07% among 65,000; S. mansoni Prx2 activity coupled to TGR/GSH (TGR is thioredoxin glutathione reductase), NADPH fluorescence loss, qHTS; some inactives read as strong as hits; AID 448; active means full or partial inhibition curve with a strong effect at the top dose; inconclusive means weaker partial or single-point curve; inactive means no accepted curve; further: series up to 57 µM; many of its hits are not listed in these tables
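Enzyme mix: 100 uM NADPH, 25 nM TGR, 700 uM GSH, 50 nM Prx2 in 100 mM phosphate pH 7.4, 10 mM EDTA, 0.01% Tween-20. 15 min RT with compound; NADPH/GSH added, H2O2 starts reaction; NADPH fluorescence read 8 min.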
* marks the source's active call; other numbers are inactive results; ? = inconclusive; · = not tested or not shown; [ ] = another dose, or the depositor's remark. Potency means the concentration at half of the fitted maximal effect. The list is partial, so the mix of outcomes need not match the whole.

SMILES	Anthrax LT inh	SmPrx2 inh
CCC(C)(C(=O)NC1CCCCC1)N(Cc1ccco1)C(=O)c1cnccn1 (stereo not given)	5.7%	>57
COc1ccc(CCNC(=O)C2CCN(S(=O)(=O)N3CC(C)CC(C)C3)CC2)cc1OC (stereo not given)	18.6%	>57
Cc1nc(-n2cc(F)c(=O)[nH]c2=O)c2nc(C)oc2n1	?	>57
Cc1c(C(=O)N2CCC3(CC2)OCCO3)oc2ccc(S(=O)(=O)N3CCOCC3)cc12	-0.3%	>57
CC1(C)CC(=O)C(C=NC2CCCCC2)=C(O)C1	5.1%	·
COc1cccc(-c2cc(C(=O)Nc3ccccc3SC)no2)c1	?	>57
CCOc1ccc(NC(=O)CN(C)CC(=O)Nc2ccccc2C#N)cc1OCC	-9.9%	>57
CC1=C(C(=O)Nc2ccccc2)C(c2ccco2)C(C#N)=C(SCc2ccccc2)N1 (stereo not given)	?	·
CSCC[C@@H](C(=O)O)N1Cc2ccccc2C1=O	8.8%	>57
Cc1cc(N2CCCCC2)n2ncc(-c3ccccc3)c2n1	4.4%	>57
O=C(Nn1c(C2CC2)nc2ccccc2c1=O)c1ccco1	-5.7%	>57
Cc1noc(C)c1COC(=O)Cn1c(C)nc2ccccc21	-5.6%	>57
O=C(c1ccc(F)cc1)N1CCC(O)(c2cccnc2)CC1	-7.8%	>57
O=C(CCN1C(=O)C2C3C=CC(C3)C2C1=O)Nc1ccccn1 (stereo not given)	7.2%	>57
COc1ccc(N2CCN(C(=O)CN(c3ccc(Br)cc3)S(C)(=O)=O)CC2)cc1	6.3%	·
O=C(CCn1c(=O)oc2ccccc21)NC1=NCCS1	20.2%	>57
COc1cccc(Cn2c(=O)c(C)nc3cnc(OC)nc32)c1	0.6%	>57
COc1ccc(NC(C)c2cc(Cl)ccc2O)cc1 (stereo not given)	-2.5%	>57
CCN(CCCNC(=O)CC(C(=O)N1CCc2ccccc21)n1ccnc1)c1cccc(C)c1 (stereo not given)	?	>57
O=C(c1ccccc1)c1nc2ccccc2[nH]c1=O	6.9%	>57
Cn1c(=O)n(CC(=O)Nc2ccc(F)cc2)c2ccccc21	-8.3%	>57
c1cncc(-c2nc(-c3cccs3)cs2)c1	0.0%	>57
Cc1ccc(C2NC(=O)c3ccccc3N2)s1 (stereo not given)	?	>57
CS(=O)(=O)N1CCC2(CCN(C(c3ccccc3)c3ccccc3)CC2)CC1	9.5%	>57
COc1ccc(CCNC(=O)Cn2nnc(-c3ccc(N4CCOCC4)cc3)n2)cc1OC	3.3%	>57

One compound at a time (already shown). Screens in order: Anthrax LT inh | SmPrx2 inh
`COc1cccc(Cn2c(=O)c(C)nc3cnc(OC)nc32)c1` in the list: 0.6% | >57
`CSCC[C@@H](C(=O)O)N1Cc2ccccc2C1=O` in the list: 8.8% | >57
`CCC(C)(C(=O)NC1CCCCC1)N(Cc1ccco1)C(=O)c1cnccn1` (stereo not given) in the list: 5.7% | >57

Later entries:
SMILES	Anthrax LT inh	SmPrx2 inh
O=C(CSCCO)Nc1nccs1	-13.5%	>57
CC1CCc2c(C(=O)NCCN3CCOCC3)csc2C1 (stereo not given)	1.0%	>57
C/C=C(\C)CN1CCN(c2ccccc2F)CC1	-16.2%	>57
Cc1nc2sc(C(c3ccco3)N3CCC(Cc4ccccc4)CC3)c(O)n2n1 (stereo not given)	16.0%	>57
CCOc1ccccc1-n1c(SCC(=O)Nc2nccs2)nnc1-c1ccoc1C	3.8%	>57
O=S(=O)(NC1CCCC1)c1ccc(Br)s1	-7.4%	>57
O=C(COc1cccc(-n2cnnn2)c1)NCCC1=CCCCC1	?	>57
O=C(c1cnccn1)N1CCC2(CCCN(Cc3ccccc3)C2)CC1	?	>57
Cc1cc(Oc2ccccc2)nc(-c2ccccc2O)n1	-22.8%	>57
O=S(=O)(c1ccc(Br)s1)N1CCN(c2ccccn2)CC1	-2.1%	>57
CCN(CC)C(=O)N1c2ccccc2CC(N(CC)CC)c2ccccc21 (stereo not given)	·	>57
COc1ccc(N2CCN(c3cc(C)c4ccc(O)cc4n3)CC2)cc1	?	>57
CCS(=O)(=O)N1CCCC(c2nc(-c3cccc(OC)c3)no2)C1 (stereo not given)	8.4%	>57
CCOc1cc(C(=O)Nc2ccccc2N2CCN(S(C)(=O)=O)CC2)cc(OCC)c1OCC	-20.6%	>57
O=C(CSc1n[nH]c(-c2ccccc2)n1)NC(=O)NCc1ccco1	11.2%	>57
O=C(NC1(C(F)(F)F)N=C2SCCN2C1=O)c1ccco1 (stereo not given)	0.4%	>57
Cc1cccc(NC(=O)CCN2C(=O)c3ccccc3C2=O)n1	-9.6%	>57
Cc1cc(NC(=O)CN2CCN(Cc3ccccc3)CC2)nc2c1c(=O)oc1ccccc12	-5.8%	>57
CC1CN(C(=O)CCn2c(=O)oc3ccccc32)CC(C)O1 (stereo not given)	19.2%	>57
CCN(CCCNC(=O)C1CCN(S(=O)(=O)N2CCOCC2)CC1)c1cccc(C)c1	-9.4%	>57
FC(F)(F)c1cc(-c2ccco2)nc(NCc2cccs2)n1	?	>57
Cn1c(C(=O)NCc2cccnc2)cc2sccc21	-2.5%	>57
CCCCN(CCCNC(=O)C1CCN(S(=O)(=O)N2CCOCC2)CC1)c1ccccc1	8.8%	>57
COc1cc(-c2ccccc2)nc(N)n1	-0.6%	·
Cc1ccc(C(=O)Nc2c3c(nn2C(C)(C)C)CS(=O)(=O)C3)cc1C	-30.6%	>57

Next records:
SMILES	Anthrax LT inh	SmPrx2 inh
COc1ccc(C(=O)/C(C)=N/O)cc1OC	8.0%	·
COc1ccc(S(=O)(=O)N(CC(=O)NC2CC2)C2CCCCC2)cc1Cl	·	>57
Oc1c(Cl)ccc(Cl)c1Cl	0.4%	·
CCOC(=O)c1sc(NC(=O)CNC(=O)Cn2cnc3sc(C)c(C)c3c2=O)nc1C	3.9%	>57
CC(=O)c1ccc(N2C(=O)[C@@H]3C(CCC(N)=O)NC4(C(=O)Nc5c4ccc(Cl)c5C)[C@@H]3C2=O)cc1 (stereo not given in full)	-12.2%	>57
COc1cccc(Cn2c(=O)cnc3cnc(N4CCN(C)CC4)nc32)c1	?	>57
COc1ccc(NC(=O)CCS(=O)(=O)c2cccc3nonc23)c(OC)c1	12.0%	>57
O=C(Cn1nnc(-c2cccs2)n1)N1CCc2ccccc2C1	-4.0%	>57
CCC(CC)C(=O)Nc1cccc(-c2nc3ccccc3o2)c1	?	>57
CCOc1ccc(NC(=O)CN(C)CC(=O)NC2CCCc3ccccc32)cc1OCC (stereo not given)	?	>57
COc1ccc(C(=O)Nc2ccccc2NC(=O)c2ccco2)cc1OC	5.0%	>57
CNC[C@H](O)c1cccc(O)c1	6.8%	>57
CN(C)C(=O)c1ccc(-c2cncnc2Nc2ccccc2)cc1	-12.8%	>57
CCn1cc(C(=O)NCc2ccc(Cl)cc2)c(=O)c2cc(S(=O)(=O)N3CCOCC3)ccc21	-17.1%	>57
CC(C)N(CCCNC(=O)CC1Oc2ccccc2NC1=O)Cc1ccccc1 (stereo not given)	-14.0%	>57
CN(C)Cc1c[nH]c2nc[nH]c(=O)c12	-7.7%[8 µM]	>57
COc1ccccc1-c1nc(C#N)c(N2CCN(Cc3ccccc3)CC2)o1	·	>57
O=[N+]([O-])c1nccn1C[C@H](O)CN1CCCCC1	-6.6%[8 µM]	>57
CCOc1cc(C2CC(=O)NC3=C2C(=O)C(C(=O)OC)C(C)C3)cc(Cl)c1O (stereo not given)	16.6%	>57
Cc1cc(NC(=O)CSc2nc3ccccc3n2CC(=O)N2CCCCC2)no1	10.0%	>57
O=C(CCNc1cccc(C(F)(F)F)c1)c1ccco1	13.0%	·
COc1ccc(OC(C)C(=O)N2CC(C)OC(C)C2)cc1 (stereo not given)	7.1%	>57
CCOc1cc(C(=O)Nc2nnc(C)s2)cc(OCC)c1OCC	-9.0%	>57
CCC(C)C(=O)Nc1nc2c(s1)C(=O)CC(C)(C)C2 (stereo not given)	8.9%	>57
Cn1c(Cn2c(=O)sc3ccccc32)nnc1SCC(=O)N1CCN(c2ccccc2)CC1	-5.0%	>57

Later entries.
SMILES	Anthrax LT inh	SmPrx2 inh
COc1ccc(CCn2c(=N)c(C(=O)NCc3ccco3)cc3c(=O)n4cccc(C)c4nc32)cc1	?	>57
Cc1noc(C)c1C(=O)N1CCC[C@@]2(CCN(C(=O)Nc3cccc(C#N)c3)C2)C1	?	>57
CCc1cc2cc(C(=O)Nc3ccccc3F)sc2s1	-26.7%	>57
Cc1cc(C(=O)NCc2cc(C)n(C)n2)sc1-c1ccccc1	-14.6%	>57
COc1ccc(CCNc2oc(-c3ccccc3OC)nc2C#N)cc1OC	-6.9%	>57
COc1cccc(-c2cncnc2NCc2ccc(OC)cc2OC)c1	-10.1%	>57
CC(=O)Nc1cccc(-c2nnc(-c3ccccc3)o2)c1	·	>57
CCCC(=O)Nc1cccc(-c2cn3ccsc3n2)c1	3.3%	>57
CCCCOc1ccc(NC(=O)CSc2nnnn2C)cc1	?	>57
Cc1ccccc1CS(=O)(=O)Cc1ccc(C(=O)NCC2CCCO2)o1 (stereo not given)	8.6%	>57
O=C1CC(c2ccccc2)c2cc(O)ccc2O1 (stereo not given)	-11.4%	·
COc1ccc(N2C(=O)CCC(C(=O)c3ccccc3)=C2C)cc1	-8.1%	>57
COc1ccccc1-n1c(C)nc(=O)c(-c2ccccc2)c1C	11.3%	>57
CN1CCN(c2ncc3ncc(=O)n(CCC#N)c3n2)CC1	-10.3%	>57
CN(Cc1ccccc1)c1oc(-c2ccco2)nc1C#N	10µM*	>57
CC1(C)N(O)CC(c2cccs2)=[N+]1[O-]	-16.2%	·
COc1ccc(CNc2cc(-c3cccnc3)ncn2)c(OC)c1	20.6%	>57
Cc1ccc(-c2cc(C)nc3ncnn23)cc1	-1.1%	>57
c1ccc(-n2ncc3c(NCc4ccco4)ncnc32)cc1	·	>57
Cc1nc2ccccc2c2oc(C(=O)N3CCc4ccccc43)cc12	-3.5%	>57
COc1ccc(NC(=O)N2CCN(c3nc(-c4cccc(OC)c4)cs3)CC2)cc1	?	>57
COc1ccc(C(=O)O)cc1NS(=O)(=O)c1cccc2nsnc12	5.7%	>57
COc1ccccc1N1CCN(C(=O)C(C)N(c2ccc(C)cc2)S(C)(=O)=O)CC1 (stereo not given)	4.4%	>57
Cc1nc2c(c(=O)n1CCC(C)C)c1nc3ccccc3nc1n2Cc1ccc2c(c1)OCO2	5.6%	>57
C/C=C/Cn1c(SCCCc2ccccc2)nc2c1c(=O)[nH]c(=O)n2C	?	>57

Additional records
SMILES	Anthrax LT inh	SmPrx2 inh
COC(=O)c1ccccc1NC(=O)CSc1nnc(C(CO)NC(=O)c2ccccc2)n1C (stereo not given)	-8.0%	>57
CC(=O)N1CCCc2cc(S(=O)(=O)NCc3ccc(C)cc3)ccc21	-9.6%	>57
COc1ccc(CNc2nc(-c3cccnc3)nn2C(=O)c2ccco2)cc1	8.6%	>57
CO[C@H]1COC(=O)C/C=C\[C@@H](C)[C@H](OC)COC(=O)CCC[C@@H]1C	-6.9%[1.6 µM]	·
O=C(CCn1c(=S)[nH]c2cc3c(cc2c1=O)OCO3)NCCN1CCCC1	?	>57
Cc1cc([N+](=O)[O-])ccc1N	-5.3%	·
COCCCNC(=O)CCc1nc(-c2ccccc2Cl)no1	5.8%	>57
CC(C)N(Cc1nnc(-c2ccccc2Cl)o1)C(=O)c1cccc(C#N)c1	?	>57
CNC(=O)c1ccc(N(Cc2ccccc2)S(C)(=O)=O)cc1	4.9%	>57
CN(C(=O)c1cc2n(n1)C(C(F)(F)F)CC(c1ccco1)N2)c1ccc(OC(F)(F)F)cc1 (stereo not given)	1.3%	>57
O=C(OC(C(=O)NCC1CCCO1)c1ccc(F)cc1)c1ccco1 (stereo not given)	-0.5%	>57
COc1ccc(OC)c(N(CC(=O)NC2CC2)S(=O)(=O)c2ccc(C)cc2)c1	-12.3%	>57
CCOC(=O)c1c(C)nc2c(c1C)/C(=N/O)CC(C)(C)C2	-4.3%	·
O=C(NCc1ccccc1)c1ccc(F)c(S(=O)(=O)N2CCOCC2)c1	8.6%	>57
O=C(NCCc1ccccc1)C1CCCN1C(=O)NCc1ccccc1 (stereo not given)	8.9%	>57
CCOC(=O)c1c(C)c(C(=O)NCCCOC(C)C)c(C)n1C	3.3%	>57
Cc1nc(SCC(=O)Nc2ccccc2)c2oc3ccccc3c2n1	-5.0%	>57
COc1ccccc1CN(CC(=O)NCc1ccco1)C(=O)CNS(=O)(=O)c1ccccc1	2.9%	>57
CC(CN1CCNCC1)(NS(=O)(=O)c1ccccc1)c1ccccc1 (stereo not given)	12.8%	·
O=C1C=C(N2CCN(c3ccccn3)CC2)C(=O)c2c(O)ccc(O)c21	?	>57
O=S(=O)(O)c1cc(S(=O)(=O)O)c2c(N=Nc3cccc4ccccc34)c(O)ccc2c1	0.9%[8 µM]	>57
COc1ccc(C2=NO[C@@H]3C(=O)N(C4CCCCC4)C(=O)[C@H]23)cc1OC	?	>57

Part of the list above, with bars between the fields.
structure | Anthrax LT inh | SmPrx2 inh
O=S(=O)(O)c1cc(S(=O)(=O)O)c2c(N=Nc3cccc4ccccc34)c(O)ccc2c1 | 0.9%[8 µM] | >57
COc1ccc(NC(=O)CCS(=O)(=O)c2cccc3nonc23)c(OC)c1 | 12.0% | >57
Cc1ccc(-c2cc(C)nc3ncnn23)cc1 | -1.1% | >57
COc1ccc(OC)c(N(CC(=O)NC2CC2)S(=O)(=O)c2ccc(C)cc2)c1 | -12.3% | >57
COc1ccc(C2=NO[C@@H]3C(=O)N(C4CCCCC4)C(=O)[C@H]23)cc1OC | ? | >57
